UCH37 DUB inh – inhibitors of human UCH37 deubiquitinase, primary screen, biochemical, Ub-AMC cleavage, fluorescence; 330,000 tested, 0.33% active; inhibition, % (no concentration beside the values); AID 588478, 2011; purified proteasome/UCH37;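 active = mean of two replicates above 20%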;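 also: 0% = compound-free wells with enzyme and 100% = wells lacking proteasome; stock transfer was 100 nL into about 20 µL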
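Reagent: Ub-AMC substrate; assay system: Proteasome-associated human UCH37 deubiquitinase; controls: no-proteasome and no-compound wells; read-out: % inhibition of Ub-AMC cleavage fluorescence; timing: 30 min preincubation with enzyme, 25 min cleavage at room temperature; signal: AMC fluorescence from Ub-AMC cleavage, excitation 355 nm, emission 460 nm; buffer or medium: Tris-HCl pH 7.4 plus ovalbumin, ATP-MgCl2, DTT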
LANA-H2B inh – blockers of LANA interaction with H2A/H2B – biochemical, FP readout, HTS, primary screen | AID 2629, 2010 | cell-free LANA-H2A/H2B peptide, fluorescence polarization | 320,000 tested, 0.6% active | inhibition, % (concentration not given with the values) | Protein LANA1 (Human herpesvirus 8 type P (isolate GK18)), Q9QR71; in the data active = inhibition mostly above about 10%, no sharp cut-off; inactive = mostly below about 6.7%;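 also: stock transfer was 7.5 nL into about 10 µL; 0% = median of vehicle wells and 100% = median of positive control wells; one replicate is shown; the record names a cut of 25% in any replicate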
Target sequence (Q9QR71 whole entry, looked up): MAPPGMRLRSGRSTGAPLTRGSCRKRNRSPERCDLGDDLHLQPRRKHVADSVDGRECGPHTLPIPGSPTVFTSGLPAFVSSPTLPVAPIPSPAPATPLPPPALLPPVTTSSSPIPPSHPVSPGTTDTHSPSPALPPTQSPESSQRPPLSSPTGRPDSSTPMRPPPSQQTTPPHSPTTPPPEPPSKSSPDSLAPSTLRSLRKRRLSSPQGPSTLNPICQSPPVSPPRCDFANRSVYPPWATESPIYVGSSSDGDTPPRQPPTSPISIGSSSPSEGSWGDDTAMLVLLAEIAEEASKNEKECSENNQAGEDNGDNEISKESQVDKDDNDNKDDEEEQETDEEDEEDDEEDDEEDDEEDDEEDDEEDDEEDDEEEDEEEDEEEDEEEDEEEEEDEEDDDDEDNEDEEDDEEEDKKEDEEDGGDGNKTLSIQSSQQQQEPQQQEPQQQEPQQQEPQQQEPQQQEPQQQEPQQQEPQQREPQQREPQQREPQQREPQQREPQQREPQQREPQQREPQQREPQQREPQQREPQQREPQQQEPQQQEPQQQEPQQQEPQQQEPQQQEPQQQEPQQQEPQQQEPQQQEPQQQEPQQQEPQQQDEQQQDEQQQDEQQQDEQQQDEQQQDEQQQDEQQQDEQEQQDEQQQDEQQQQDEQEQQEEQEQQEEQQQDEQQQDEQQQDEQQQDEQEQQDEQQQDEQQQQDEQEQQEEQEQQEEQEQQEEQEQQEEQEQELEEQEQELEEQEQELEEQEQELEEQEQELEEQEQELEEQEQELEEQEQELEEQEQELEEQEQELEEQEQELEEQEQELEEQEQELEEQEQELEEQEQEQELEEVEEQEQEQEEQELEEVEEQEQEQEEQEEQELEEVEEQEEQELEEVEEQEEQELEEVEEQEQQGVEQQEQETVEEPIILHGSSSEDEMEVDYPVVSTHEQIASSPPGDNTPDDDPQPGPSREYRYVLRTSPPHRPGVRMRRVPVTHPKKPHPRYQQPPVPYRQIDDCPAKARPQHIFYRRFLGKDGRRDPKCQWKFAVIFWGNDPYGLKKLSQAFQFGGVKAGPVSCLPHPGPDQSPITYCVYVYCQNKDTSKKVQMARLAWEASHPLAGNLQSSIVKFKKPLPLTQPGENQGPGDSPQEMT
Beta2AR agonist – beta2AR agonists driving receptor internalization, primary screen, cell-based, FAP fluorogen, flow cytometry. Beta-2 adrenergic receptor (Homo sapiens), P07550. Am2.2-beta2AR cells; reference of the scale not given here. response, % (no concentration beside the values). 340,000 tested, 0.43% active. AID 504454, 2011;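 active = response above a set limit, near 3 SD of response in nonfluorescent compounds, cut at about 42% in these data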;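 also: stock transfer was 100 nL into about 11 µL; a reference agonist was the positive control; negative values mostly stem from fluorescent compounds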
FGF22 binding – binders of human FGF22 protein, primary screen, FGF22 synaptogenesis inhibitor project, biophysical, thermal shift, single point; Fibroblast growth factor 22 (Homo sapiens), Q9HCT0; recombinant FGF22 thermal shift, SYPRO orange fluorescence; percent of sucrose octasulfate shift, DMSO zero; calls only at 9.99 µM; 340,000 tested, 1.5% active; AID 651658, 2012;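 active = melting point raised past a set limit in the mean and every replicate; three in four hits are not shown here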
Ecoli growth – E. coli growth inhibition, primary screen, OD600; OD600 absorbance (concentration not given with the values); 330,000 tested, 0.21% active; AID 1053175, 2014; Escherichia coli growth, 23 h; stronger effect = lower value;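 active = OD600 absorbance below the run mean of sample wells minus 3.6 SD, in any replicate, cut at about 0.56 in these data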;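 also: stock transfer was 300 nL into about 60 µL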
HNF4A DNA FP – change in binding of human HNF4A to DNA, primary screen, biochemical, fluorescence polarization, FITC-DNA; Hepatocyte nuclear factor 4-alpha (Homo sapiens), P41235; 1 h; activity change, % at 10 µM; 360,000 tested, 0.3% active; AID 1224865, 2016; in the data active = activity change above about 30%, passing the limit was not always enough;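 also: controls were the assay level and a saturating level of protein; the project sought stronger binding though the title names inhibitors; some compounds called inactive have numbers as strong as hits; positive values seem to mean higher polarization but the record does not say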
ALR H2O2 inh – inhibitors of human ALR sulfhydryl oxidase, primary screen, biochemical, H2O2 detection, HRP-luminol luminescence, single point. inhibition, % (test concentration not listed). AID 485317, 2010. purified ALR, DTT oxidation. 290,000 tested, 3.8% active. FAD-linked sulfhydryl oxidase ALR (Homo sapiens), P55789;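 active = mean and each replicate at 75% or more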;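 also: stock transfer was 7.5 nL into about 7.5 µL; 0% = neutral wells and 100% = wells with inactivated enzyme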
* marks the source's active call; other numbers are inactive results; i = inactive; · = not tested or not shown. An excerpt; the hit share may differ from the screen's.

SMILES	UCH37 DUB inh	LANA-H2B inh	Beta2AR agonist	FGF22 binding	Ecoli growth	HNF4A DNA FP	ALR H2O2 inh
CCC(=O)Nc1c(S(=O)(=O)c2ccccc2)c2nc3ccccc3nc2n1Cc1ccccc1	-359.8	-9.6	-0.8	i	0.689	0.2	-8.1
O=C(O)c1cc(N2C(=O)C3C4C=CC(C4)C3C2=O)ccc1N1CCOCC1 (centres undefined)	0.7	1.1	-3.9	i	0.692	-0.9	7.1
CCOc1ccc(-c2nc3n(c(=O)c2C#N)CCS3)cc1	-83.6	2.2	-29.1	i	0.689	3.0	-11.6
COc1ccc(S(=O)(=O)Nc2cc(C)ccc2OC)cc1C	2.3	0.2	-5.0	·	0.779	0.7	-8.9
O=C(CCn1c(=O)oc2ccccc21)NCCC1=CCCCC1	1.8	0.8	-3.6	i	0.662	0.6	-2.5
COC(=O)c1ccc(N=c2sc(C(=O)OC)cc(=O)n2C)cc1	3.3	·	8.2	i	0.753	0.1	·
O=C1CC(N(CCc2ccccc2)C(=S)Nc2ccccc2)C(=O)N1c1ccc(Br)cc1 (centres undefined)	1.1	5.3	13.2	i	0.685	-2.4	-2.4
Cn1c(SCCCC(=O)c2ccc(F)cc2)nnc1-c1ccncc1	5.8	5.3	0.5	·	0.624	0.1	-7.5
Cn1cnc(S(=O)(=O)NCc2ccc(Br)cc2)c1	2.1	0.3	6.2	i	0.705	7.2	-6.7
CC(C(=O)NC1CCCCC1)N1CCN(C)CC1 (centres undefined)	0.7	-2.6	6.3	·	0.694	-2.8	-7.6
CCC(=O)c1ccc(OCC(=O)OCC(=O)NC2CCCCCC2)cc1	1.9	3.6	11.5	i	0.625	0.7	·
COCCN(C(=O)C1CC1)c1nnc(-c2ccc(C)cc2)s1	0.2	-1.4	-21.2	·	0.671	0.2	-3.5
C=CCC(NCc1ccccc1)c1ccc(C)o1 (centres undefined)	4.0	-1.4	-2.2	·	0.717	2.2	-4.9
S=C(NC1CCCCC1)NN1CCCCCC1	-0.4	·	-7.4	i	0.682	-2.0	·
O=C(N/C(=C\c1ccccc1)C(=O)N1CCOCC1)c1ccco1	4.4	8.7	2.8	i	0.646	2.4	-16.0
CCOC(=O)c1sc2nc(CC(=O)OC)nc(N(C)CCc3ccccn3)c2c1C	-5.2	2.3	4.8	i	0.654	1.7	-4.1
Cc1cc2ccccc2n1CCNC(=O)Cc1cccc2ccccc12	6.2	-2.9	2.9	i	0.769	-0.9	-7.2
CN(CC(=O)Nc1cccc(F)c1)C(=O)c1cn(-c2ccccc2)nc1-c1ccc(F)cc1	2.5	-3.0	19.2	i	0.67	-0.7	0.3
O=c1c2[nH]c3ccc(F)cc3c2ncn1CCCN1CCOCC1	2.1	6.1	-6.1	·	0.705	0.7	-14.6
Cc1cc(C)n2nc(CC#N)c(C#N)c2n1	-30.8	-2.0	6.1	i	0.717	-2.5	-0.3
CC(=O)c1c(C)[nH]c(C(=O)OCn2nnc3ccccc3c2=O)c1C	0.6	-5.5	0.8	·	0.752	0.8	2.2
CN(C)c1ccc2c(c1)Sc1cc(N(C)C)ccc1N2C(=O)c1ccccc1	·	0.2	9.0	i	·	-3.1	21.8
Cc1ccc(N2C(=O)C3C4CCC(O4)C3C2=O)c(OC(F)F)c1 (centres undefined)	0.2	4.8	4.6	i	0.649	1.2	34.7
CN1CCN(C(=O)Cn2c(=O)oc3cc(S(=O)(=O)NCc4ccccc4)ccc32)CC1	4.0	3.3	6.9	i	0.662	-2.1	-8.2
COc1ccc(C(=O)NC(C)c2csc(C)n2)cc1OC1CCN(C(C)=O)CC1 (centres undefined)	-1.2	1.7	-2.4	i	0.663	1.2	-5.6

(continued)
SMILES	UCH37 DUB inh	LANA-H2B inh	Beta2AR agonist	FGF22 binding	Ecoli growth	HNF4A DNA FP	ALR H2O2 inh
COC(=O)c1cc(NS(=O)(=O)c2ccc(NC(C)=O)cc2)cc(C(=O)OC)c1	-7.8	4.3	-4.6	·	0.683	-0.3	·
Cc1c(C(=O)Nc2cccnc2Cl)oc2ccccc12	-0.1	10.2	-11.3	i	0.693	2.2	-18.9
COc1ccccc1C(=O)NNC(=O)CCCN1C(=O)/C(=C/c2cccs2)SC1=S	0.6	-1.9	2.0	·	0.72	39.8*	-6.5
O=C1CSC(=S)N1N=Cc1ccccc1O	·	·	2.5	i	·	6.0	·
Cc1nc(C)n(C(C)CNC(=O)c2cccc(Br)c2)n1 (centres undefined)	2.3	-4.2	-11.5	i	0.622	5.6	-5.0
CN(C)CCNC(NC(=O)c1cccs1)C(Cl)(Cl)Cl (centres undefined)	0.6	·	0.2	·	0.606	-1.8	·
C/C=C(\C)CN1CCN(c2cc(C)ccc2C)CC1	6.8	-7.6	1.9	·	0.667	-4.6	4.3
COc1ccc(C(=O)n2ncc(C#N)c2N)cc1	3.5	·	-3.0	i	0.661	1.9	·
CCOC(=O)c1ccc(OC(=O)CCCCCN=C(N)N)cc1	1.8	-4.9	-2.4	i	0.718	5.6	-0.4
COC(=O)COc1ccc(/C=C2/NC(=O)N(CC(=O)OC)C2=O)cc1	9.5	5.2	10.6	i	0.73	7.0	-10.6
CN(C)C(CNC(=O)c1cccc(S(=O)(=O)Nc2ccccc2Cl)c1)c1ccco1 (centres undefined)	-1.4	1.9	-5.2	i	0.713	1.4	1.5
Cc1cc2nc(Cl)c(Cl)nc2cc1C	1.8	1.8	7.5	i	0.715	-0.8	-0.9
N#C/C(=C\c1ccc(N2CCCCC2)c([N+](=O)[O-])c1)c1nn(-c2ccccc2)c(N)c1C#N	5.3	-2.8	0.8	·	0.738	1.8	-5.7
COc1ccccc1N(C)S(=O)(=O)c1ccc(C(=O)O)cc1	0.4	1.9	0.8	·	0.712	1.1	0.5
CC(=O)Nc1ccc(NC(=O)CS(=O)(=O)c2cn(CC(=O)N3CCCCC3)c3ccccc23)cc1	-0.3	-0.6	-1.1	i	0.75	1.4	·
CCOC(=O)Cn1nc(C)c(NC(=O)COc2ccc(OC)cc2)c1C	0.8	-2.2	8.0	i	0.667	-0.2	0.2
COC(=O)[C@@H](NC(=O)c1cc(COc2cncc(Cl)c2)on1)c1ccccc1	4.2	2.8	2.4	i	0.648	0.0	-10.8
CC(NC(=O)CCc1nnc(-c2ccc(-c3ccccc3)cc2)o1)c1nc2ccccc2[nH]1 (centres undefined)	1.9	4.0	14.9	i	0.668	9.2	-3.3
O=C(NCCC1=CCCCC1)c1ccc(Cl)c([N+](=O)[O-])c1	2.7	3.4	-3.0	i	0.639	1.4	-2.0
CCN(CC(=O)Nc1ccc2c(c1)OCCO2)C(=O)c1ccc(C(F)(F)F)cc1	3.3	-3.1	-9.7	i	0.632	1.1	·
CC1CC(C)CN(S(=O)(=O)c2cccc3cccnc23)C1 (centres undefined)	3.3	-4.2	28.3	i	0.75	-0.1	91.6*
CCn1c2c(c(=N)c3c1CCC3)CCCC2	4.4	1.7	-2.9	i	0.674	-1.9	·
O=C(OCc1ccc(Cl)cc1Cl)c1ccncc1	6.0	1.2	-4.3	·	0.662	-0.3	-0.1
COc1ccc(CCNC(=O)COc2ccc(N(C)S(=O)(=O)c3ccc(C)cc3)cc2)cc1OC	1.4	-1.6	1.5	i	0.688	2.1	·
Cc1cc(OCCCC(=O)NCCN2C(=O)S/C(=C\c3cccnc3)C2=O)ccc1Cl	-1.7	2.5	16.7	i	0.741	-0.9	15.0

Remaining list, next part:
SMILES	UCH37 DUB inh	LANA-H2B inh	Beta2AR agonist	FGF22 binding	Ecoli growth	HNF4A DNA FP	ALR H2O2 inh
CC(=O)Nc1sc2c(c1C#N)CCCCC2	7.8	3.4	-8.0	·	0.679	-3.4	34.3
O=C(O)c1ccc(N=N/C(=N\Nc2ccc(C(=O)O)cc2)c2ccccc2)cc1	·	0.6	3.7	i	·	2.8	97.7*
CCOc1ccc(S(=O)(=O)N2CCOCC2)cc1NC(=O)CSC(=S)N1CCCC1	-1.0	-18.8	-9.4	i	0.652	-1.3	-7.5
O=C(OCCCN=C1NS(=O)(=O)c2ccccc21)c1cccs1	3.8	3.7	-4.4	i	0.7	1.6	1.4
Oc1ccc(N=Nc2n[nH]c(-c3ccc(Cl)cc3)n2)cc1	8.3	-2.5	5.3	i	0.626	2.3	33.5
Cc1oc2c(c(C)cc3oc(=O)c(CC(=O)NCCC(=O)O)c(C)c32)c1C	-198.7	1.1	22.5	i	0.642	-3.6	7.0
CCOC(=O)c1ccc(NS(=O)(=O)c2ccc3[nH]c(=O)[nH]c3c2)cc1	1.9	2.4	6.2	·	0.71	2.2	19.4
O=C(CN1C(=O)CCS(=O)(=O)c2ccccc21)Nc1cccc(F)c1	3.8	12.2	11.8	·	0.707	0.3	-18.3
CCCNCC(O)Cn1c2ccccc2n2c(=O)cc(C)c(C#N)c12 (centres undefined)	-65.5	1.7	-12.8	i	0.636	5.7	-21.4
O=C(NCC(O)c1ccc2ccccc2c1)c1c(F)cccc1F (centres undefined)	5.6	1.1	0.2	i	0.681	-2.2	1.5
O=C1CCCc2nc(N3CCc4ccccc43)ncc21	-192.9	-1.5	-0.9	·	0.618	0.7	-3.4
COC(=O)c1ccc(C2/C(=C(\O)c3cccc(OC)c3)C(=O)C(=O)N2CCCN(C)C)cc1 (centres undefined)	7.8	-1.8	41.0	i	0.686	-0.3	4.3
CCO[C@@H]1OC(C(=O)NCc2ccccc2)=C[C@H](c2ccc(C(F)(F)F)cc2)[C@H]1CCCO	0.3	-6.6	1.5	i	·	-0.4	-6.3
Cc1oc(-c2ccccc2F)nc1CSCC(=O)NC1CCCC1	-1.5	-2.7	11.9	i	0.711	-2.0	-32.7
O=C(Oc1cccnc1)c1ccco1	-0.6	-0.6	0.7	·	0.695	-0.7	10.9
COc1cc(C(=O)NC(CCSC)C(=O)OCC(=O)C(C)(C)C)cc(OC)c1OC (centres undefined)	1.5	0.1	3.9	i	0.693	-0.2	-10.9
Cc1ccc(S(=O)(=O)N(C)C)cc1NC(=O)CN1C(=O)NC2(CCCc3ccccc32)C1=O (centres undefined)	-3.5	-1.6	-7.5	·	0.714	1.5	-4.9
CCc1ccc(NC(=O)CSc2nc3ccccc3c(=O)n2CCCN2CCC(C)CC2)cc1	5.2	1.9	10.4	i	0.707	-5.4	22.8
CCOc1ccc(-c2[nH]ncc2-c2csc(C)n2)c(O)c1	2.6	5.1	-1.6	i	0.691	-1.3	-17.8
O=C(c1ccc(OC2CCN(Cc3ccc(C(F)(F)F)cc3)CC2)cc1)N1CCCCC1	-0.8	1.7	61.6*	i	0.639	-6.8	-4.4
CCOc1ccc(S(=O)(=O)N(CC)CC(=O)NCc2cccnc2)cc1	1.4	4.8	-6.2	i	0.656	-0.1	8.9

An excerpt from above, limited to UCH37 DUB inh:
Structure	UCH37 DUB inh
CCO[C@@H]1OC(C(=O)NCc2ccccc2)=C[C@H](c2ccc(C(F)(F)F)cc2)[C@H]1CCCO	0.3
O=C(NCC(O)c1ccc2ccccc2c1)c1c(F)cccc1F (centres undefined)	5.6
COc1ccc(S(=O)(=O)Nc2cc(C)ccc2OC)cc1C	2.3

Screening results deposited in PubChem BioAssay by several laboratories.
